Screens deposited in PubChem by National Center for Advancing Translational Sciences (NCATS).
NS1 inh: blocks influenza NS1 protein function; AID 2326; Potency, µM (titrated, usually from 46.1 µM), inactives show at the top dose activity, positive = more growth; S. cerevisiae slowed by influenza A NS1, growth recovery by OD600; 0.4% of 270,000 active; active means well fitted rising curve with a large enough effect; inconclusive means small, poorly fitted or top-dose-only effect; inactive means no such curve, though single readings can be large or run the other way; also: nearly all actives have a fitted effect of over 50% in size
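A cell-based growth assay was used: compounds that relieve NS1-induced slow growth of budding yeast raise OD600. Assay medium was yeast nitrogen base with ammonium sulphate and -URA supplement, pH 6.0, with 2% galactose.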
SARS PLpro yeast: inhibitors of SARS-CoV papain-like protease in yeast | 0.19% of 330,000 active | S. cerevisiae expressing SARS-CoV PLpro, growth rescue; control for the full effect not named in the record | Potency, µM (top dose mostly 32.9 µM), inactives show at the top dose activity, positive = growth rescue; active means well fitted rising curve with a large enough effect; inconclusive means small, poorly fitted or top-dose-only effect; inactive means no such curve, though single readings can be large or run the other way; also: 0% is about no effect; nearly all actives have a fitted effect of over 55% in size; growth read by luminescence after 48 h
LASV entry inh: Lassa virus entry inhibition | Potency, µM (doses to about 37.9 µM), for inactives: at the top dose activity change, negative = inhibition, actives largely listed as inhibitors | 1.2% of 300,000 active | Lassa virus pseudotype entry inhibition, cell reporter; control for the full effect not named in the record; active means well fitted inhibition curve with a large enough effect; inconclusive means small, poorly fitted or top-dose-only effect, or effect the other way; inactive means flat fitted curve, though single readings scatter; tested in HEK293 cells; also: % is scaled to controls: 0 for no effect and ±100 for the full control effect; nearly all actives have a fitted effect of over 50% in size; luciferase read-out
MARV entry inh: Marburg virus entry inhibition; Marburg virus pseudotyped entry inhibition, cell reporter; control for the full effect not named in the record; about a third of the inactives were read at about 46 µM; Potency, µM (titrated, usually from 37.8 µM), without a hit: at the top dose activity change, negative = inhibition, usual class: inhibitors; 1.8% of 300,000 active; AID 540276; active = well fitted inhibition curve with a large enough effect; inconclusive = small, poorly fitted or top-dose-only effect, or effect the other way; inactive = flat fitted curve, though single readings scatter; tested in HEK293 cells; about a fifth of its hits are not listed in these tables; also: % is scaled to controls: 0 for no effect and ±100 for the full control effect; luciferase read-out
RE007 growth inh: less growth of the S. pombe RE007 Vpr strain; 0.21% of 360,000 active; Potency, µM (series often up to 92.2 µM), without a hit: top-dose activity change, negative = less growth; S. pombe RE007 Vpr strain, BacTiter-Glo ATP luminescence, 24 h; control for the full effect not named in the record; AID 651644; active = well fitted falling curve with a large enough effect; inconclusive = small, poorly fitted or top-dose-only effect; inactive = no such curve, though single readings can be large or run the other way;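 also: % is scaled to controls: 0 for no effect and ±100 for the full control effect; nearly all actives have a fitted effect of over 50% in size; the assay follows cell death caused by Vpr and the record does not say whether a fall means rescue or toxicity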
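Fission yeast RE007 carrying one integrated HIV-1 vpr copy, seeded at OD 0.01 in PMG+AL medium with 23 nL pinned compound. Grown 24 h at 30 degrees; viability read by BacTiter-Glo luminescence after 5 min.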
Cruzain inh Det: inhibitors of Trypanosoma cruzi cruzain with detergent; P25779; purified cruzain, Z-FR-AMC fluorescence, 0.01% Triton; Potency, µM, for the others: max response, negative = inhibition, actives largely listed as inhibitors; 0.43% of 200,000 active;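 also: plate controls were neutral wells for no effect and buffer without enzyme for full effect; nearly all actives have a fitted effect of over 40% in size; top concentration of the series not given in the record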
Target sequence (P25779 123-467 limits assumed): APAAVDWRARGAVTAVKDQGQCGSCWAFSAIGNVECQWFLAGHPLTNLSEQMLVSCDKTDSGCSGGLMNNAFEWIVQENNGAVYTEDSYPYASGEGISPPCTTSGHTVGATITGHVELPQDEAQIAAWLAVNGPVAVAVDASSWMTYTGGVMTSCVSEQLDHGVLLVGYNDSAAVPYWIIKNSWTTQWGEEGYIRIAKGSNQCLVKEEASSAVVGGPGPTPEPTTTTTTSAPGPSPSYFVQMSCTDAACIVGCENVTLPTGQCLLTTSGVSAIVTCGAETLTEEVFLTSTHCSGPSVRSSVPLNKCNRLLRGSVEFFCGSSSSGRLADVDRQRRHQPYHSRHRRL
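Compounds were screened in titration against cruzain (1.5 nM) with 0.01% Triton X-100 to counter colloidal aggregation. Activity was the AMC fluorescence increase over 60 s after adding 2 uM Z-FR-AMC at pH 5.5.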
Cruzain noTriton: blocks cruzain activity in detergent-free assay; P25779; purified cruzain, Z-FR-AMC fluorescence, no detergent; Potency, µM, inactives show max response, negative = inhibition, most hits filed as inhibitors; 2.3% of 200,000 active; AID 1476;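 also: plate controls were enzyme without inhibitor for no effect and buffer without enzyme for full effect; nearly all actives have a fitted effect of over 40% in size; top concentration of the series not given in the record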
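Purified cruzain at 1.5 nM, pre-incubated 15 min with compound at room temperature in 100 mM sodium acetate pH 5.5, 5 mM DTT, 0.00005% Triton X-100. Reaction started with 2 uM Z-FR-AMC; AMC fluorescence increase over 60 s gives rate.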
StopGo reporter: FMDV 2A StopGo reporter, luciferase signal | human cells with a luciferase reporter of 2A StopGo recoding; control for the full effect not named in the record | Potency, µM (highest dose often 57.9 µM), without a hit: top-dose signal change, negative = less light | 1.2% of 410,000 active | AID 1159524; active = well fitted falling curve with a large enough effect; inconclusive = small, poorly fitted or top-dose-only effect; inactive = no such curve, though single readings can be large or run the other way; tested in HEK293T cells; also: % is scaled to controls: 0 for no effect and ±100 for the full control effect; nearly all actives have a fitted effect of over 45% in size; luciferase light after 4 h
* marks the source's active call; other numbers are inactive results; ? = inconclusive; · = not tested or not shown; & = joins results of further samples; ! = not active in a repeat; [ ] = dose if it differs, or a comment. Unless noted, calls follow the shape of the dose curve; as a rule, active = well fitted curve in the direction sought with a large enough effect; inconclusive = small, poorly fitted or top-dose-only effect, or another doubt; inactive = no such curve, though single readings can be large; an effect the other way counts as inactive or inconclusive. Potency is read from the fitted curve at half-maximal effect.

SMILES	NS1 inh	SARS PLpro yeast	LASV entry inh	MARV entry inh	RE007 growth inh	Cruzain inh Det	Cruzain noTriton	StopGo reporter
COc1cc(-c2cc3nc(C)c(C)c(=O)n3[nH]2)cc(OC)c1OC	7%	-3%	-13%	-15%	0%	4.4%	8%	·
CCc1ccc(S(=O)(=O)N2CCN(Cc3ccco3)CC2)cc1	-12%	-2%	1%	8%	1%	·	·	-13%
COc1cc(C(=O)NCc2nnc(SCC(=O)c3ccccc3)o2)cc(OC)c1OC	15%	-3%	·	·	18%	·	·	-17%
Cc1ccc(C(=O)Nc2ccncc2)c(Cl)c1	-31%	-9%	6%	-7%	-18%	·	·	-8%
[O-]/[N+](=C\c1ccco1)c1ccc(Cl)cc1	-7%	-13%	·	·	0%	·	·	46%[activator]
Cc1ccc(S(=O)(=O)N2CCOCC2)cc1C(=O)OCC(=O)N1CCCCC1	·	13%	-1%	?	14%	·	·	1%
Cc1cccc(-c2nnc(SCC(=O)C(C)(C)C)n2C)c1	1%	-2%	?	0%[46.1 µM]	4%	·	·	33%[activator]
CC1(C)C2CC=C(/C=N/NC(=O)C(N)=O)C1C2 (centres undefined)	-3%	1%	·	·	2%	·	·	-8%
CN(c1ccc(OCC(=O)N2CCN(c3ccc(F)cc3)CC2)cc1)S(=O)(=O)c1cccs1	·	-3%	?	8.9µM*	-8%	·	·	-24%
COC(=O)c1cc(OC)c(OC)c(OC)c1NC(=O)c1cc(=O)n(C)c(=O)n1C	·	·	-17%[46.1 µM]	22%[46.1 µM]	·	-1.8%	-2%	-16%
Cc1ccc(Nc2nc3nonc3[nH]c2=O)cc1C	-96%	-22%	9%	?	-10%	-6.4%	-17%	-15%
FC(F)(F)c1cccc(-c2nc(COc3ccc(Cl)cc3Cl)no2)c1	-4%	0%	10%	-11%	-9%	·	·	-5%
Cc1cc(NC(=O)COC(=O)c2ccc(C)c(C)c2)no1	·	-3%	0%	-3%	15%	·	·	-2%
Nc1cc(N)nc(SCc2cccc(F)c2)n1	-26%	-4%	·	·	-19%	·	·	78%[activator]
CCOc1ccc(-c2nnn(CC(=O)c3cc(OC)ccc3OC)n2)cc1	-11%	5%	3%	0%	9%	-7.0%	12%	20%
CCc1nc(C)c(C#N)c2cc(OC)c(OC)cc12	19%	0%	-12%	15%[46.1 µM]	-6%	2.6%	11%	-2%
O=C(CNc1n[nH]c(=O)[nH]c1=O)N/N=C/c1ccccc1	3%	1%	·	·	0%	·	·	?
CCOc1ccc(NS(=O)(=O)c2cc3c(cc2C)N(C)CCO3)cc1	14%	-3%	·	·	-21%	·	·	31%[activator]
O=C(COc1ccc(Br)cc1Cl)NC(=S)Nc1ccccn1	-2%	-3%	·	·	14%	·	·	-2%
CCC1CCCCN1S(=O)(=O)c1ccc(NC(=O)c2nc(S(C)(=O)=O)ncc2Cl)cc1 (centres undefined)	5%	-5%	?	8.9µM*	-9%	·	·	32µM*
CCOC(=O)c1cccc(NC(=O)CSc2nnc(C)n2Cc2ccccc2)c1	-12%	-2%	-18%	-14%	-4%	-0.3%	10%	-33%
CCC1(CC)COP(=O)(OCC(Cl)CCl)OC1 (centres undefined)	·	·	-12%	-12%	9%	·	·	6%
Cn1c(=O)n(C)c2cc(S(=O)(=O)N3CCCCC3)ccc21	3%	-2%	-5%	-18%[46.1 µM]	2%	·	·	-9%
Cc1ccc(-c2nc3c(c(=O)[nH]c(=O)n3CC(C)C)n2CC(C)C)cc1[N+](=O)[O-]	-6%	-5%	?	?	-17%	·	·	-27%
COc1ccc(-c2csc(/C(C#N)=C\c3ccc(OC)c([N+](=O)[O-])c3)n2)cc1	3%	3%	-1%	17%	-10%	-2.2%	?	-8%
Cc1cnc(C(=O)Nc2cc(F)ccc2C)cn1	-7%	-2%	·	·	-16%	·	·	14%
CC(C)(C)NC(=O)NC(=O)COC(=O)CNS(=O)(=O)/C=C/c1ccccc1	-2%	-1%	·	·	5%	·	·	12%
CCCCCCOc1ccc(N2C(=O)CC(S/C(N)=N/N=C(\C)c3cccs3)C2=O)cc1 (centres undefined)	0%	0%	?	-20%	7%	-0.3%	?	0%
O=C(Cc1ccccc1)Nc1ccc2oc(=O)ccc2c1	-1%	-1%	?	-29%	-4%	·	·	10%
NC(=S)NN=C1C=CCCC1	·	·	-3%	7%	3%	·	·	-1%
CCN(C1CCCCC1)S(=O)(=O)c1ccc(C(=O)O)cc1	-3%	5%	9%	9%	-3%	-1.0%	1%	9%
CCOC(=O)CSc1nnc(-c2cccc(Cl)c2)n1CC	-9%	2%	1%	4%	3%	3.1%	-2%	-5%
COC(=O)c1ccc(N2CCN(C)CC2)c(NC(=O)COc2ccccc2Cl)c1	0%	0%	-13%	2%[46.1 µM]	1%	·	·	-11%
COc1ccc(S(=O)(=O)Nc2ccc(-c3cn4c(C)csc4n3)cc2)cc1	·	·	?	·	·	-3.6%	25µM*	20%
COc1ccc(/C=N/NC(=S)Nc2ccccc2)cc1COc1ccccc1F	23%	2%	?	1%	·	-3.8%	13µM*	·
CS(=O)(=O)c1ccc2nnn(OCC(=O)Nc3ccc(Br)cc3Br)c2c1	·	2%	3%	?	-14%	·	·	7%
COc1ccc(/C=N/NC(=O)c2ccccc2F)cc1CN1CCN(c2ccc(F)cc2)CC1	17%	-7%	?	4%	-19%	-6.9%	-6%	-1%
O=C(NCCCc1ccccc1)C(=O)NCC1OCCN1S(=O)(=O)c1ccccc1 (centres undefined)	·	·	?	14%	4%	·	·	-13%
CCOC(=O)C(NC(=O)CC)(Nc1ccccc1OC)C(F)(F)F (centres undefined)	-55%	14%	1%	2%[46.1 µM]	12%	2.7%	-10%	-14%
COC(=O)c1cccc(COC(=O)c2cc3ccccc3oc2=O)c1	-19%	-5%	·	·	-4%	·	·	37%[activator]
CCCCCNS(=O)(=O)c1ccc(N2CCCCS2(=O)=O)cc1	·	·	-10%[46.1 µM]	·	·	0.3%	1%	6%
Cc1ccc(-c2nnc(C)c(N3CCCC3)n2)cc1	·	-3%	-9%	-5%[46.1 µM]	?	·	·	4%
Cc1ccc(-c2csc(-c3ccncc3)n2)cc1	-8%	-3%	·	·	-8%	·	·	0%
O=C(CSc1nc(-c2ccco2)cc(C(F)(F)F)n1)NCCN1CCOCC1	-1%	0%	13%[46.1 µM]	11%[46.1 µM]	-3%	·	·	-3%
Cc1ccc(NC2=CC(=O)CC(c3ccco3)C2)c(N)c1 (centres undefined)	15%	-4%	-15%	?	1%	1.1%	-1%	11%
N#CCCNC(=O)CCN1CCOCC1	0%	1%	10%	?	4%	7.6%	0%	-4%
CCc1nnc(NC(=O)CCC(=O)N2CCN(CCc3ccccc3)CC2)s1	-1%	-4%	24%	6%&6%	9%	-1.0%	0%	-7%
Cc1cc(=O)[nH]c2nnc(-c3ccc(Cl)cc3)n12	-1%	-1%	?	?	-17%	·	·	8%
Cc1ccc(-n2c(-c3ccc(Br)cc3)c[n+]3c2CCc2ccc4cccnc4c2-3)cc1	-144%	-18%	6.5µM*	2.3µM*!	-27%	0.4%	-20%	1.1µM*
CC(=O)N1c2ccc(S(=O)(=O)N3CCCC3)cc2CC1C(=O)NCc1ccccc1F (centres undefined)	-6%	2%	·	·	10%	·	·	-2%
COCc1[nH]nc2c1C(c1ccc(F)cc1F)C(C#N)=C(N)O2 (centres undefined)	5%	1%	-4%	13%	2%	2.4%	-1%	-29%
COc1ccc(OC)c(NC(=O)C(C)N2c3cccc4cccc(c34)S2(=O)=O)c1 (centres undefined)	?	-2%	8%	-2%	1%	·	·	-7%
Cc1cccc(NC(=S)N(CCN2CCOCC2)Cc2ccccc2F)c1	·	-2%	?	-10%[46.1 µM]	14%	·	·	-10%
COC(=O)c1ccc(CSc2nnc(N)s2)cc1	-13%	2%	11%	?	40%	0.8%	-2%	43%[activator]
Nc1nonc1-c1nc2ccccc2n1CC(=O)Nc1ccccc1	?	0%	-12%	?	5%	·	·	-2%
O=[N+]([O-])c1ccc(/C([O-])=C(/C(=S)NCc2ccco2)[n+]2ccccc2)cc1	·	-1%	-11%[46.1 µM]	17%[46.1 µM]	-22%	·	·	18%
O=C(Oc1ccc(/C=N/O)cc1)c1ccccc1Cl	-48%	-2%	·	·	?	·	·	27%
Cc1nnsc1-c1c(C(=O)N2CCOCC2)c(C)nn1-c1ccccc1	-2%	1%	3%	·	-2%	·	·	-15%
COc1ccc(/C=N/NC(N)=S)cc1	-8%	27%	1%	9%[46.1 µM]	-24%	·	·	4%
O=C(c1ccc(Cl)c(S(=O)(=O)N2CCOCC2)c1)N1CCc2ccccc2C1	·	-4%	7%	?	3%	·	·	0%
New compounds follow.
SMILES	NS1 inh	SARS PLpro yeast	LASV entry inh	MARV entry inh	RE007 growth inh	Cruzain inh Det	Cruzain noTriton	StopGo reporter
O=C(CCc1ccccc1)NNC(=S)NC(=O)c1ccccc1	-155%	5%	-25%	?	?	5.5%	0%	·
O=C(COC(=O)Cc1cccc(F)c1)NC(=O)NC1CCCCC1	·	2%	21%	-6%[46.1 µM]	-7%	·	·	-21%
COc1ccc(S(=O)(=O)N2CCN(CC(=O)Nc3ccc(Cl)c(C(F)(F)F)c3)CC2)cc1	·	·	?	·	·	-3.5%	13%	0%
CCOC(=O)N1CCN(S(=O)(=O)N2CCCC(C(=O)NCCc3ccc(C)cc3)C2)CC1 (centres undefined)	-2%	11%	·	·	4%	·	·	-25%
CCn1c(C)[n+](CC)c2ccc(S(=O)(=O)N(C)C)cc21	-1%	0%	3%	-22%[46.1 µM]	5%	·	·	-11%
NCCCCCC(=O)N/N=C/c1coc2ccccc2c1=O	-9%	0%	4%	-3%	-5%	·	·	-11%
COc1ccc(-c2csc(NC(=O)c3ccccc3OC)c2C(=O)O)cc1OC	10%	3%	·	·	8%	·	·	-11%
O=c1[nH]c(C2CCCN(S(=O)(=O)c3ccccc3)C2)nc2c1nnn2Cc1ccc2c(c1)OCCO2 (centres undefined)	19%	-2%	·	·	6%	·	·	-13%
